HPGD block: inhibitors of human 15-hydroxyprostaglandin dehydrogenase (HPGD); AID 894; Potency, µM, without a hit: top-dose activity change, negative = inhibition, actives largely listed as inhibitors; P15428; hit rate 4.3% among 150,000; purified HPGD, NADH fluorescence kinetic, PGE2 substrate; active = well fitted inhibition curve with a large enough effect (not every such curve was filed as active); inconclusive = small, poorly fitted or top-dose-only effect, or another doubt; inactive = no such curve, though single readings can be large or run the other way;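 further: top concentration of the series not given in the record; plate controls included wells without enzyme; inactives centre near -10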
Target sequence (P15428 whole entry, looked up): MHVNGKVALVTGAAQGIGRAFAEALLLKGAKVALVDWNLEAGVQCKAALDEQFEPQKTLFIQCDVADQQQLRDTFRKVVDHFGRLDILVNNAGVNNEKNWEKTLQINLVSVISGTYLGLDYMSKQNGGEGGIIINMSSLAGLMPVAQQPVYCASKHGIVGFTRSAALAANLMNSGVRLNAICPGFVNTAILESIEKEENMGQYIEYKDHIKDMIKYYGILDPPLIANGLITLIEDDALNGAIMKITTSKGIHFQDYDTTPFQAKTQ
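NADH formation kinetics: reaction with 30 uM PGE2 and 1 mM NAD+ (final), 20 nM enzyme, Tris-HCl pH 8 with Tween 20, after 15 min compound preincubation at room temperature. Fluorescence change, last versus first of five reads.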
An asterisk follows results filed as active; ? = inconclusive; & = joins results of further samples. On the % scale 0 is the no-effect control and ±100 the full control effect; potency means the concentration at half of the fitted maximal effect.

SMILES	HPGD block
CCCCS(=O)(=O)N1C2=NC(C(=O)OC)=C(C(=O)OC)[C@@H]3N(C)c4ccccc4[C@]23C[C@H]1C(=O)OC	-5%
O=C(O)c1cc(Cl)cc(Cc2cc(Cl)cc(C(=O)O)c2O)c1O	?
COc1ccc([N+](=O)[O-])cc1NC(=O)CC(C)c1ccccc1 (centres undefined)	-29%
Cc1ccc(S(=O)(=O)N2CCOCC2)cc1C(=O)Nc1c(C)n(C)n(-c2ccccc2)c1=O	3%
O=C(CCCN1C(=O)/C(=C/c2ccco2)SC1=S)Nc1ccccc1	-6%
Cc1sc2nc(SCC(=O)c3cc(C)n(CC4CCCO4)c3C)n(C(C)C)c(=O)c2c1C (centres undefined)	-13%
Cc1nnc(SCC(=O)Nc2cccc(S(=O)(=O)N(C)c3ccccc3)c2)s1	0.022µM*
COc1ccc(N2C(=O)CCC(C(=O)N3CCC(C(N)=O)CC3)C2c2ccc(F)cc2)cc1 (centres undefined)	-2%
COc1ccc(-c2coc3ccc(OC4OC(COC(C)=O)C(OC(C)=O)C(OC(C)=O)C4OC(C)=O)cc3c2=O)cc1 (centres undefined)	0%
O=C(CSc1nc2ccccc2[nH]1)Nc1ccc(F)cc1	-4%
CCCCOc1ccc(CN(C)c2ncnc(N)n2)cc1	-5%
O=C(c1ccco1)N1CCC2(CC1)CN(c1ccccc1)C2	-8%
N#Cc1c(-c2ccccc2)nc2n(-c3ccccc3)nc(C(=O)Nc3ccccc3)n2c1=O	-16%
C=CCn1c(SCc2nc3c(c(=O)[nH]c(=O)n3CCCC)n2CCC)nnc1-c1ccccc1	-8%
CCOC(=O)Cc1csc(NC(=O)c2ccc3c(c2)OCO3)n1	-14%
CCN(CC)Cc1c(O)ccc2c(=O)c(-c3ccc4c(c3)OCCO4)coc12	?
Cc1c(NS(C)(=O)=O)c(=O)n(-c2ccccc2)n1C	-5%
O=C(/C=C/c1cccc([N+](=O)[O-])c1)c1cccs1	-11%
CCc1ccc(NC(=O)c2ccc(F)c(S(=O)(=O)NCC3COc4ccccc4O3)c2)cc1 (centres undefined)	-9%
CCCCn1c(N)c(-c2nc3ccccc3s2)c2c([N+](=O)[O-])nn(C)c(=O)c21	3%
COc1ccc(C(=O)/C(=C\c2sccc2C)c2nc3ccccc3o2)cc1	-12%
Cc1[nH]c2ccc(-c3nnc(SCC(=O)N4CCCc5ccccc54)o3)cc2c1C	?
CN1CCCN([C@@H](c2ccccc2)c2ccc(Cl)cc2)CC1	2%
CC(=O)OCC1OC(n2cnc3c(=O)[nH]cnc32)C(OC(C)=O)C1OC(C)=O (centres undefined)	-11%

An excerpt from above in order of molar mass, highest first:
SMILES	HPGD block
C=CCn1c(SCc2nc3c(c(=O)[nH]c(=O)n3CCCC)n2CCC)nnc1-c1ccccc1	-8%
Cc1sc2nc(SCC(=O)c3cc(C)n(CC4CCCO4)c3C)n(C(C)C)c(=O)c2c1C (centres undefined)	-13%
Cc1ccc(S(=O)(=O)N2CCOCC2)cc1C(=O)Nc1c(C)n(C)n(-c2ccccc2)c1=O	3%
COc1ccc(N2C(=O)CCC(C(=O)N3CCC(C(N)=O)CC3)C2c2ccc(F)cc2)cc1 (centres undefined)	-2%
Cc1nnc(SCC(=O)Nc2cccc(S(=O)(=O)N(C)c3ccccc3)c2)s1	0.022µM*
N#Cc1c(-c2ccccc2)nc2n(-c3ccccc3)nc(C(=O)Nc3ccccc3)n2c1=O	-16%
CCCCn1c(N)c(-c2nc3ccccc3s2)c2c([N+](=O)[O-])nn(C)c(=O)c21	3%
CC(=O)OCC1OC(n2cnc3c(=O)[nH]cnc32)C(OC(C)=O)C1OC(C)=O (centres undefined)	-11%
CCN(CC)Cc1c(O)ccc2c(=O)c(-c3ccc4c(c3)OCCO4)coc12	?
COc1ccc(C(=O)/C(=C\c2sccc2C)c2nc3ccccc3o2)cc1	-12%
O=C(CCCN1C(=O)/C(=C/c2ccco2)SC1=S)Nc1ccccc1	-6%
CCOC(=O)Cc1csc(NC(=O)c2ccc3c(c2)OCO3)n1	-14%
CN1CCCN([C@@H](c2ccccc2)c2ccc(Cl)cc2)CC1	2%
O=C(CSc1nc2ccccc2[nH]1)Nc1ccc(F)cc1	-4%
O=C(c1ccco1)N1CCC2(CC1)CN(c1ccccc1)C2	-8%
CCCCOc1ccc(CN(C)c2ncnc(N)n2)cc1	-5%
Cc1c(NS(C)(=O)=O)c(=O)n(-c2ccccc2)n1C	-5%
O=C(/C=C/c1cccc([N+](=O)[O-])c1)c1cccs1	-11%

(listing goes on)
SMILES	HPGD block
N#Cc1ccc(-c2ccc(F)cc2)nc1Oc1ccc(F)cc1	?
Fc1ccccc1CSc1nc2ncc(Br)cc2[nH]1	0.79µM*
COc1ccc(N(CC(O)CN2CCCCC2)S(=O)(=O)c2ccc(C)cc2)cc1 (centres undefined)	-9%
CC(C)(C)n1ncc2c(=O)n(CC(=O)N3CCc4ccccc43)cnc21	0%
COc1ccc(/C=N/NC(=O)c2ccccc2)cc1OS(=O)(=O)c1ccccc1	-15%
COc1ccccc1[C@H]1C(c2ccc(F)cc2)=NN(c2ccccc2)[C@@H]1CO	?
CC1CCCC(NC(=O)NC(=O)CCl)C1C (centres undefined)	-12%
COc1cc(NC(=S)N2CCCC(CO)C2)c(OC)cc1Cl (centres undefined)	?
COc1ccccc1-c1nnc(NC(=O)C(C)C)s1	-19%
O=C(Cn1cnc2ccccc2c1=O)N(Cc1ccco1)c1ccc(O)cc1	-4%
CCOC(=O)c1ccc(NS(=O)(=O)c2cccc3nsnc23)cc1	-19%
COc1ccc(N=C2C(=Nc3ccc(OC)cc3)N(c3ccccc3)C(=S)N2C(=O)c2ccc(Cl)cc2)cc1	-14%
COCc1[nH]nc2c1C1(C(=O)Nc3ccc(F)cc31)C(C#N)=C(N)O2 (centres undefined)	-5%
Cc1cccc(NC(=O)CNC(=O)COc2ccc(C(=O)c3ccc(F)cc3)cc2)c1C	-14%
CCOC(=O)c1c(C)n(C)c2ccc(OC)c(NC(=O)c3cccs3)c12	-6%
CC(=O)Nc1nc(-c2ccccc2)nc(C)c1C(C)=O	-3%
COC(=O)C(NC(C)=O)(Nc1ccc(Br)cc1)C(=O)OC	-7%
COc1ccc(-c2coc3cc4oc(=O)c5ccccc5c4cc23)cc1F	?
O=C(NCc1ccc(Cl)cc1)C(=O)NCC(c1ccco1)N1CCOCC1 (centres undefined)	-1%
COc1ccc(-n2cc3c(-c4cccc(Br)c4)nnc(C)c3n2)cc1	-16%
Cc1ccc(S(=O)(=O)NCC(=O)N(CC(=O)NC2CCCCC2)Cc2ccco2)cc1	6%
COc1ccccc1NC(=O)CSc1nnc(C)n1Cc1ccccc1	-26%
COCC(C)NC(=O)c1ccccc1[N+](=O)[O-] (centres undefined)	-13%
NCCc1cnc[nH]1	-8%&-2%&-14%&-5%
CCCCCCNCc1c(F)cccc1Cl	-4%
O=C(c1csnn1)N1CCC2(CC1)CN(c1ccccc1)C2	?
Cn1c(=O)c2c(nc(SCCN3CCCCC3)n2Cc2ccccc2)n(C)c1=O	2%
CCCCn1c(-c2ccco2)nc2ccccc2c1=O	-3%
Cn1c(SCc2ccc(Cl)cc2)nc(C(F)(F)F)cc1=O	-14%
O=C(NCC1COc2ccccc2O1)c1cn(Cc2ccc(F)cc2)nn1 (centres undefined)	-13%
CC12C=CC(=O)C=C1[C@@H](F)CC1C2C(O)CC2(C)C1CC[C@]2(O)C(=O)CO (some centres undefined)	-8%
O=C(/C=C/c1ccc([N+](=O)[O-])cc1)NCc1ccccn1	-7%
Cc1cccc(-n2[nH]c(C)c(C=Nc3ccc4[nH]c(=O)[nH]c4c3)c2=O)c1	-4%
CC1=C/C(=N/O)C([C@H]2C=C(C)CC(C)(C)[C@@H]2O)C(C)(C)C1 (some centres undefined)	-5%
Cc1ccc(S(=O)(=O)NC(=O)c2cccn2C)cc1	-13%
O=C(NCCCCN1CCCC1)c1ccc(Cc2nc3ccccc3[nH]2)cc1	-10%
COc1cc(CCC(=O)Nc2ccc(Cl)c(C(F)(F)F)c2)cc(OC)c1OC	-16%
CCCN1c2cccc3cccc(c23)S1(=O)=O	-27%
Cc1ccc2sc(NNC(=O)c3cc(-c4cccs4)nc4ccccc34)nc2c1C	-20%
O=C(CSc1nnc(Cc2cccs2)n1Cc1ccco1)Nc1ccc(Br)cc1	?
Cc1ccc(OCC(=O)N/N=C/C=C/c2ccco2)cc1	-4%
Nc1c(-c2ccc(Cl)cc2)cnn1C1CCS(=O)(=O)C1 (centres undefined)	-8%
CCOC(=O)NC(=O)CSc1nnc(C)s1	-5%
O=C(Nc1ccc(Cl)cc1)OCc1cc(-c2ccccc2)on1	-2%
CCOc1ccc2nc(SCc3ccc(OC)cc3)sc2c1	-24%
Cc1ccc(-c2nc3cc(NS(=O)(=O)c4ccc(C)cc4)ccc3o2)cc1	-11%
Cn1nnnc1SCCNS(=O)(=O)c1ccccc1	-10%
COC(=O)C1=C(C(=O)OC)SC2(S1)C(C(=O)OC)=C(C(=O)OC)SC1=C2c2cc(C)cc(C)c2NC1(C)C	-9%
O=C1CCCN1c1ccc(S(=O)(=O)NCCOc2ccccc2)cc1	-2%
Cc1cc(C)c(-c2c(O)c3cnn(-c4ccccc4)c3[nH]c2=O)c(C)c1	-9%
N#Cc1c(N)oc(-c2ccccc2)c1-c1ccccc1	-19%
Cc1oc(-c2ccccc2)cc1C(=O)Nc1ccc2ccccc2c1	?
COc1cc(OC)c(OC)cc1/C=N/NC(=O)c1cc(-c2cccn2C)n[nH]1	?
Cc1ccc(C)c(SCC(=O)OCC(=O)Nc2ccc(S(=O)(=O)N3CCOCC3)cc2)c1	-13%
O=C(COc1ccccc1)Nc1sc2c(c1C(=O)NCc1cccnc1)CCCC2	-12%
COc1cccc2c(=O)n(CC(=O)Nc3ccc(F)cc3F)ccc12	-14%
CC(C)NCCCCOc1ccccc1-c1ccccc1	1%
CCOC(=O)COc1c(-c2ccc(OC)cc2)oc2ccccc2c1=O	?
CCC(=O)NCCC1CCc2ccc3c(c21)CCO3 (centres undefined)	-12%
COC(=O)C1=C(CSc2nnnn2C)NC(=O)NC1c1cc(C)ccc1C (centres undefined)	1%
Other records follow:
SMILES	HPGD block
Cc1ccc(C)c(S(=O)(=O)N/N=C/c2ccc(C(=O)O)cc2)c1	-13%
CCN(CC)c1ccc(NC(=O)CN2CCN(CC(=O)Nc3ccc(F)cc3)CC2)cc1	1%
CCOC(=O)c1c(N)sc(C(=O)N2CCOCC2)c1C	-25%
Cc1nc2c(Cl)cccc2[nH]1	-2%
COc1ccc(C(=O)NC2CC3CCCC(C2)N3CC(C)C)cc1OC (centres undefined)	-6%
O=C(Cn1cnc2c(cnn2-c2ccccc2)c1=O)Nc1ccc(S(=O)(=O)N2CCOCC2)cc1	-6%
Cc1csc(-c2cnn(-c3ccccc3)c2NC(=O)c2ccccc2)n1	-4%
CC(Sc1nnc(NC2CCCCC2)s1)C(=O)Nc1ccc2c(c1)C(=O)c1ccccc1C2=O (centres undefined)	?
CC(=O)c1ccc(NC(=O)c2noc3c2CCCCC3)cc1	-18%
COc1ccc(C(=O)NC(=S)Nc2ccccc2N2CCCCC2)cc1[N+](=O)[O-]	-16%
Cn1nnnc1SCc1ccc(C(=O)Nc2ccc(Br)cc2)cc1	-13%
O=C(CSCc1ccccc1)N=Nc1c(O)[nH]c2ccccc12	-8%
O=C(NCc1ccccc1)c1ccc2c(=O)n(CC3CCCO3)c(=S)[nH]c2c1 (centres undefined)	-5%
CCOC(=O)C(NC(=O)CC)(Nc1ccc(S(=O)(=O)Nc2ncccn2)cc1)C(F)(F)F (centres undefined)	-1%
O=C(CSc1ncc(-c2ccc(F)cc2)n1Cc1ccco1)Nc1ccc2c(c1)OCO2	-7%
CC(C)CO/C(=N/S(=O)(=O)c1ccccc1)c1ccccc1	-10%
ON1C2CCCCC2N(O)C1c1ccccc1C(F)(F)F (centres undefined)	-3%
CC(C)(C)C(=O)N1CCN(c2ccc(Cl)cc2[N+](=O)[O-])CC1	-14%
CCn1c(C)c(C(C)=O)c(N2CCC(C(N)=O)CC2)nc1=S	-6%
CCN1CCN(C(c2cccnc2)c2cc(Cl)c3cccnc3c2O)CC1 (centres undefined)	-1%
Cc1ccc(CSc2nc3c(c(N(C)C)n2)CCCC3)cc1	-11%
CCn1c(SCC(=O)Nc2ccccc2C(=O)OC)nnc1-c1ccc(N)cc1	-7%
Cc1ccc(-n2c(C)cc(/C=N\NC(=O)CC(=O)NC(C)C)c2C)cc1	-12%
CC(=O)Oc1cccc(N2C(=O)C3CC=CCC3C2=O)c1 (centres undefined)	-3%
Clc1cccc2sc(N3CCCCC3)nc12	?
Cc1ccc(C(=O)C(=S)N2CCOCC2)cc1	-4%
CC(C)CC(=O)NC(=S)Nc1ccccn1	-28%
O=C(CSc1nc2ccccc2c(=O)n1CC1CCCO1)NCC1CCCO1 (centres undefined)	-4%
CC(C)n1c(N2CCN(CC(=O)NCc3cccs3)CC2)nc2ccccc21	-11%
CCN(CC)c1ccc(NC(=O)CSc2nc3ccccc3c(=O)n2-c2cc(S(=O)(=O)N(C)C)ccc2C)cc1	-19%
CCOC(=O)c1c(C)[nH]c(C(=O)OCC(=O)N2CCN(S(=O)(=O)c3ccccc3)CC2)c1C	-6%
COc1ccc(S(=O)(=O)Nc2ccc(S(=O)(=O)N3CCCCC3)cc2)cc1C	-12%
Cc1nnc(SCC(=O)N/N=C/c2ccc(-c3ccc(C)c(Cl)c3)o2)s1	?
Cn1c(=O)[nH]c(=O)c2c1nc(N1CCCCC1)n2CCSc1nc2ccccc2o1	-11%
Nc1ncnc2nc(Cl)[nH]c12	-4%
O=C(NCc1ccccc1)Nc1cccn(Cc2cccc(F)c2)c1=O	-20%
COCCCn1c(=NC(=O)c2ccc3c(c2)OCO3)c(C#N)cc2c(=O)n3cccc(C)c3nc21	-16%
O=C(CCCCCCCC(=O)NNC(=O)Nc1ccccc1)NNC(=O)Nc1ccccc1	-25%
CC(C)(C)C(=O)Nc1ccccc1C(=O)N1CCCC1	-3%
Cc1cn[nH]c1	-9%

Bioassay records (PubChem BioAssay)

A portion of the library; rates above refer to the full screens.
